High-throughput results deposited in PubChem by National Center for Advancing Translational Sciences (NCATS).
Rango dissoc inh: inhibitors of RanGTP-induced Rango-importin beta complex dissociation; Potency, µM (top dose mostly 46.1 µM), for the others: at the top dose activity change, negative = inhibition; O95149+P62826; AID 540253; hit rate 0.071% among 340,000; Biochemical FRET Rango-importin beta, RanGTP-induced dissociation; active means falling FRET ratio curve, often poorly fitted, with flat reads before Ran was added; inconclusive means other falling curves, or compound fluorescence or quenching; inactive means flat or rising ratio curve;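 note: potency is the fitted concentration of half-maximal effect; % of control where 0% means no effect; nearly all actives have a fitted effect of over 45% in size; -100% = wells without RanGTP and RCC1; the record marks most hits as doubtful in a second field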
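Quantitative HTS using a FRET biosensor: 0.1 uM Rango, 0.25 uM importin beta, 0.6 uM Ran, 2 mM GTP, 0.2 uM RCC1 final, PBS with DTT, Tween-20 and BSA. Post-read taken 45 min after Ran addition.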
Rango-impB inh: inhibitors of Rango-importin beta complex formation; Q14974; Rango CFP/YFP FRET sensor + importin beta, 45 min; Potency, µM (doses to about 92.2 µM), for the others: at the highest dose inhibition of complex formation; hit rate 0.031% among 340,000; AID 540263; active = rising FRET ratio curve, often small or poorly fitted; inconclusive = mostly compound fluorescence or quenching in the first reads; inactive = flat curves in all reads;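 note: potency is the fitted concentration of half-maximal effect; 0% = DMSO wells and 100% = buffer wells lacking importin beta; nearly all actives have a fitted effect of over 15% in size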
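FRET biosensor (snurportin 1 IBB flanked by EYFP and cerulean), 50 nM, with compound 5 min, then 0.125 microM importin beta in PBS, 1 mM DTT, 0.02% Tween-20, 0.1% BSA. CFP/YFP ratio read after 45 min at room temperature; pre-read flags interference.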
miR-21 reporter: raises the signal of a miR-21 reporter; HeLa miR-21 FLuc reporter, luciferase, 48 h; Potency, µM (highest dose often 38.3 µM), for the others: top-dose reporter change, positive = more light; 340,000 tested, under 10 active; active = well fitted rising curve with a large enough effect; inconclusive = small, poorly fitted or top-dose-only effect; inactive = no such curve, though single readings can be large or run the other way;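 note: % of control where 0% means no effect; miR-21 action dims this reporter so a rising signal means less miR-21 action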
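HeLa cells endogenously expressing miR-21, stably carrying CMV-driven firefly luciferase with a downstream miR-21 binding site, 2000 cells/well. Titrations up to approximately 40 uM, 48 hours; luciferase luminescence read.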
GLA inh pH 4.5: blocks human alpha-galactosidase A at pH 4.5; purified enzyme, 4-MU-alpha-Gal fluorescence, pH 4.5; P06280; activity change, negative = inhibition, % at 105 µM; 230,000 tested, under 10 active; inconclusive = small, poorly fitted or top-dose-only inhibition, or a rising curve; inactive = flat fitted curve, though single readings scatter; no compound was filed as active;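 note: 0% = full activity with enzyme and -100% = basal without enzyme; dose as in the result columns while the protocol names 77 µM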
Target sequence (P06280 whole entry, looked up): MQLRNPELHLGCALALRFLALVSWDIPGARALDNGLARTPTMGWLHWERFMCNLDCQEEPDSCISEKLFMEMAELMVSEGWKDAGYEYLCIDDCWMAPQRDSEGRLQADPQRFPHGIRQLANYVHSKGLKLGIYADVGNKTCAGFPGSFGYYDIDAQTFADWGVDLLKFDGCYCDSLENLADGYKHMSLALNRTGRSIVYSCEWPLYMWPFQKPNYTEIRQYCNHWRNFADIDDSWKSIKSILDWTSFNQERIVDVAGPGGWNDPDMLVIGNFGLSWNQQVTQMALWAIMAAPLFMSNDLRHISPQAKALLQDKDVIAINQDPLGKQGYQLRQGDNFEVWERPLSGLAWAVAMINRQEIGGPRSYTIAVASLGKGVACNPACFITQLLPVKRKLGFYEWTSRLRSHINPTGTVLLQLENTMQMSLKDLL
Numbers without * were called inactive; ? = inconclusive; . = no result given; & = joins results of further samples; [ ] = another dose, or the depositor's remark. A portion of the library, so the mix of outcomes need not match the whole.

mol,GLA inh pH 4.5,miR-21 reporter,Rango-impB inh,Rango dissoc inh
CCOC(=O)c1sc2nc(CC(=O)OC)nc(NCC(=O)OC)c2c1C,4,3%,0.7%,3%
Cc1sc2nc(C(C)C)nc(SCC(=O)N3CCOCC3)c2c1C,.,-15%,-0.4%,7%
CCOC(=O)Cc1csc(NC(=O)/C=C\c2ccccc2Cl)n1,-19,-3%,-0.2%,8%
CCOc1cc(CNc2ccc(S(N)(=O)=O)cc2)cc(Cl)c1OC,-22,19%,-7.3%,4%
CSCC[C@H](NC(=O)OC(C)(C)C)C(=O)N/N=C/c1cc2ccc(C)cc2nc1Cl,2,-1%,-1.5%,-10%
Cn1c(=O)n(C)c2cc(/C=N/NC(=O)c3ccc(Cl)cc3Cl)ccc21,2,-18%,3.6%,-4%
C=CCn1c(-c2csc3c2CCC(C)C3)n[nH]c1=S (stereo not given),-13,-4%,0.1%,0%
COC(=O)c1ccccc1NC(=O)c1ccc(COc2cc(C)cc(C)c2)o1,-21,-15%&3%,-2.0%,1%
Cc1ccc(NC(=O)CCC(=O)OCC(=O)c2ccc(Oc3ccc([N+](=O)[O-])cc3)cc2)cc1C,1,-5%,-1.6%,10%
COc1ccccc1N(C)S(=O)(=O)c1ccc(C(=O)OCC(=O)N(C)c2ccccc2)cc1,-4,4%,2.1%,1%
Cc1c(C(=O)OCC(=O)NCc2ccco2)oc2ccccc12,.,.,-1.0%,14%
CC(C(=O)OCC(=O)N1CCCCC1)N1C(=O)c2ccccc2C1=O (stereo not given),.,.,-1.3%,-4%
CC1=NN(c2ccccc2)C(=O)/C1=C/c1cccs1,-3,1%,1.3%,2%
O=C(COc1ncnc2sccc12)Nc1cccc(S(=O)(=O)N2CCCC2)c1,-9,-9%,0.2%,-9%
Cc1ccc(NC(N)=S)cc1C,-9,0%,?,1%
Cc1cc(C)nc(NS(=O)(=O)c2ccc(NC(=O)c3cc4c(=O)n5cccc(C)c5nc4n3C)cc2)n1,.,-19%,?,?
CC(C)(C)NCCOc1ccc2ccccc2c1,0,2%,-1.5%,7%
COc1ccccc1OCCCCN1CCCCC1,.,-1%,-2.2%,0%
COc1cc(/C=N/NC(=O)CSCc2ccc([N+](=O)[O-])cc2)cc(OC)c1OC,7,-8%,0.2%,6%
CCNC(=S)Nn1cnc2ccccc21,-7,-4%,4.6%,-7%
CCOP(=O)(OCC)C1NC(=O)N(c2ccccc2)C1=O (stereo not given),.,-4%,13%,5%
CCC(=O)c1ccc(OCC(=O)NCC2COc3ccccc3O2)cc1 (stereo not given),.,.,-5.5%,-13%
Nc1nonc1-n1nnc(C(=O)N/N=C/c2ccncc2)c1CSc1ccc(Cl)cc1,.,0%,?,13%
Brc1ccc(/C=N/Nc2nc3ccccc3o2)cc1,.,-64%,0.8%,-8%
O=C(N/C(=C/c1ccc([N+](=O)[O-])cc1)C(=O)N1CCCC1)c1ccccc1,.,-9%,-0.8%,-6%
COc1ccc(O)c(/C=N/Nc2nc(C)cc(-c3ccccc3)n2)c1,.,.,0.2%,-7%
O=C(CN1CCN(Cc2ccccc2)CC1)Nc1ccc(F)c(F)c1,.,-1%,-3.2%,-12%
O=C(Nc1cc(Cl)ccc1Oc1ccccc1)C1=COCCO1,.,.,-4.7%,10%
Cc1ccc(NC2=C(Cl)C(=O)OC2OC(=O)c2ccc(C)cc2)cc1 (stereo not given),-5,0%,-1.7%,-4%
Cc1c(OCC(=O)NCCCN2CCCC2=O)ccc2c3c(c(=O)oc12)CCCC3,.,1%,-0.3%,-9%
CC(C)NC(=O)c1nc2ccccc2s1,-3,-31%,-0.6%,3%
CC(=O)c1ccc(NC(=O)CSC2=NS(=O)(=O)c3cc(Cl)ccc3N2)cc1,.,.,7.6%,13%
O=C(Cn1ncc2c3ccccc3n(Cc3ccccc3)c2c1=O)NC1CCCC1,.,-4%,5.0%,8%
O=C(NCc1cnn(-c2ccccc2)c1)C1CCC(=O)N(C2CC2)C1 (stereo not given),.,0%,-1.9%,-4%
CCOC(=O)C1=C(CC)OC(N)=C(C#N)C1c1ccsc1 (stereo not given),6,-12%,-1.0%,-7%
O=C1c2ccccc2C(Nc2ccc3c(c2)OCCO3)N1c1ccccn1 (stereo not given),-3,-14%,-4.9%,-6%
CCCCOc1ccc(CSC(=N)N)cc1[N+](=O)[O-],-2,15%,-1.4%,-2%
COc1ccc(NC(=O)CC2C(=O)NC3CCCCC3N2C(=O)c2ccc(F)cc2)cc1 (stereo not given),.,8%,1.4%,-8%
CC(C)=CCN1CCN(Cc2coc3ccc(C)cc3c2=O)CC1CCO (stereo not given),.,-4%,-1.9%,1%
CCOc1ccc(OCCCN(C)C)cc1,6,1%,2.5%,0%
c1ccc(CCNc2ccccc2)cc1,-4,1%,.,.
Cc1cccc(N2C(=O)CCC2=O)c1,-5,-1%,0.1%,15%
Cc1c(C(=O)NCCC2=CCCCC2)cccc1[N+](=O)[O-],4,-42%,-1.0%,4%
CCN(CC)C(=S)SCC(=O)Nc1nc(-c2ccccc2)c(-c2ccccc2)o1,-2,16%,0.7%,-2%
CCCn1c(-c2nonc2N)nc2ccccc21,0,10%,-4.8%,2%
CC(Cc1c[nH]c2ccccc12)C(=O)N1CCN(c2ccccc2F)CC1 (stereo not given),.,-3%,0.8%,18%
O=[N+]([O-])c1ccccc1S(=O)(=O)Nc1ccc(S(=O)(=O)Nc2nccs2)cc1,.,6%,-2.1%,6%
Cc1ccc(S(=O)(=O)CCC(=O)OCC(=O)c2c[nH]c3ccccc23)cc1,-1,0%,0.0%,2%
CCCCNC(=O)C1CCN(Cc2ccc(OCc3ccccc3)c(OC)c2)CC1,.,-38%,0.6%,-13%
COC(=O)c1ccc(C(=O)Nc2ccc(F)cc2)cc1,.,.,-1.4%,-9%
COc1ccc(S(=O)(=O)NC(C)C)cc1C(=O)N1CCOCC1,8[21.1 µM],0%,-0.7%,1%
CCC(=O)OC1(C(=O)CCl)[C@@H](C)C[C@H]2[C@@H]3CCC4=CC(=O)C=C[C@]4(C)[C@@]3(F)[C@@H](O)C[C@@]21C (stereo not given in full),.,.,-3.9%,-6%
CC(=O)Nc1ccc(/C(N=Nc2ccccc2)=N/N=C(N)N)cc1,.,.,4.8%,5%
CSCCC(NS(=O)(=O)c1ccc2c(c1)OCCO2)C(=O)N(C)Cc1ccc(F)cc1 (stereo not given),.,.,-1.0%,-22%
CN(CC(=O)Nc1ccc(Cl)c(C(F)(F)F)c1)C(=O)/C=C/c1ccco1,-15,-1%,-1.9%,1%
COc1cccc(C(=O)c2c(C)c(CCC#N)n3ccccc23)c1OC,-1,-2%,-9.3%,-10%
Cc1noc(C)c1CCC(=O)NC1CCCN(Cc2ccc(CC(C)C)cc2)C1 (stereo not given),.,23%,-5.9%,8%
O=C(c1cc(-c2cccc(Cl)c2)on1)N1CCN(c2ccc(F)cc2)CC1,.,-4%,-3.9%,2%
CC(C)C[C@H](NC(=O)NCc1ccccc1Cl)C(=O)O,0,-2%,0.4%,27%
CCOC(=O)c1[nH]c(C)c(/C(O)=C2\C(=O)C(=O)N(CCN(C)C)C2c2ccc(C)o2)c1C (stereo not given),-6,19%,0.1%,-18%

New compounds follow
mol,GLA inh pH 4.5,miR-21 reporter,Rango-impB inh,Rango dissoc inh
Cc1cccc(N(CC(=O)NCCSc2ccccn2)S(=O)(=O)c2ccccc2)c1,-22,1%,-1.0%,-2%
COc1cc(NC(=S)NCCO)c(OC)cc1Cl,-1,1%,3.2%,5%
CC(C(=O)Nc1ccc2c(c1)OCCO2)N(C)Cc1c(F)cccc1Cl (stereo not given),-13,-4%,-1.6%,-3%
CC(=O)NC(CC(=O)Nc1cc(Cl)ccc1-n1cncn1)c1ccccc1 (stereo not given),.,.,-2.7%,17%
CSCC[C@H](NC(=O)NCc1ccccc1F)C(=O)O,6,-4%,1.7%,-5%
O=C1NC(=S)S/C1=C\c1ccc2ccccc2c1,.,-10%,2.2%,-9%
CCN1CCCC1CNC(=O)c1cc(N)ccc1OC (stereo not given),.,.,0.3%,-11%
O=C(COc1ccc(Br)cc1Cl)NC(=O)NCc1ccccc1,-7,-20%,2.1%,-5%
COc1ccccc1CNC(=O)C(Cc1c[nH]c2ccccc12)NC(=O)OCc1ccccc1 (stereo not given),0,11%,-1.1%,10%
CCCn1nc(NC(=O)C2CCCO2)c2cc3cc(C)ccc3nc21 (stereo not given),12,-32%,?,?
CC(=O)c1c(C)[nH]c(C(=O)NC2CCSc3ccccc32)c1C (stereo not given),.,?,1.8%,-17%
COc1cc(NC(=O)CSc2ccc(-c3cccnc3)nn2)cc(OC)c1,.,2%,-0.4%,1%
CC(C)[N+]1(C)[C@@H]2CC[C@@H]1CC(OC(=O)C(CO)c1ccccc1)C2 (stereo not given in full),.,.,-0.4%,-7%
O=C1/C(=C/c2cccs2)NC(=S)N1C1CC1,9,-13%,?,?
COc1cccc(OC)c1C(=O)NC(=S)Nc1ccc2oc(-c3ccncc3)nc2c1,0,4%,1.1%,-3%
Cc1c(Cl)cccc1NC(=S)NCC(c1cccnc1)N(C)C (stereo not given),-3,5%,3.0%,-10%
CC(=O)c1cccc(NC(=O)NN2CCN(C)CC2)c1,.,3%,-2.8%,-8%
O=C(NCc1c(Cl)cccc1Cl)c1ccc2nnsc2c1,-4,-2%,-0.4%,9%
Cc1ccc(NC(=O)CSc2ccc(-c3ccco3)nn2)c(C)c1,-2,0%,0.9%,7%
Cc1cc2occ(CC(=O)OCC(=O)Nc3sc4c(c3C#N)CCC(C)C4)c2cc1C (stereo not given),-5,-25%,5.3%,-4%
C[C@H](CO)N1C[C@H](C)[C@@H](CN(C)C(=O)Nc2ccc(C(F)(F)F)cc2)Oc2ccc(NC(=O)Cc3ccccc3)cc2C1=O,.,.,-1.0%,17%
C/C(=C/c1oc2ccc(O)cc2c1[N+](=O)[O-])N(C)C,-21,-25%,0.1%,-2%
COc1ccc(N(CC(=O)N/N=C(\C)c2ccccc2)S(=O)(=O)c2ccccc2)cc1,.,-1%,-5.8%,9%
Cc1ccc(NS(=O)(=O)c2cccc3cccnc23)c(Cl)c1,.,-6%,0.0%,14%
O=C(CN1C(=O)C(=O)N(C2CCCC2)C1=O)Nc1ccc([N+](=O)[O-])cc1,.,.,0.6%,-11%
CC(=O)c1cccc(NC(=O)/C=C/c2ccc(S(=O)(=O)N3CCOCC3)cc2)c1,.,.,-3.7%,1%
O=C1c2ccccc2C2=Nc3ccccc3SC(c3ccc(Cl)cc3)C12 (stereo not given),-5,?,-2.4%,-3%
CCOc1ccc(OCc2ccc(C(=O)N3CCc4ccccc4C3)o2)cc1,-16,-33%,-0.6%,0%
Fc1ccc(CSc2ncnc3nc[nH]c23)cc1,8,-19%,-1.4%,-9%
CN(C(=O)COC(=O)c1cc2ccccc2cc1O)c1ccccc1,.,.,2.1%,22%
CNc1nc(SCC(=O)Nc2ccc(Cl)c(Cl)c2)nc(N2CCOCC2)n1,.,-3%,4.5%,2%
CCOc1ccc(CCNC(=O)CN2CCN(Cc3ccccc3C)C2=O)cc1OCC,9,-6%,1.8%,-9%
CC(C)(C)CC(=O)NCCCCCCNC(=O)CC(C)(C)C,-4,-7%,-1.9%,2%

Reformatted: two of the compounds above
GLA inh pH 4.5,miR-21 reporter,Rango-impB inh,Rango dissoc inh,mol
-7,-4%,4.6%,-7%,CCNC(=S)Nn1cnc2ccccc21
.,-4%,13%,5%,CCOP(=O)(OCC)C1NC(=O)N(c2ccccc2)C1=O (stereo not given)
